High-throughput results from PubChem BioAssay.
MARV entry inh: Marburg virus entry inhibition | Marburg virus pseudotyped entry inhibition, cell reporter; control for the full effect not named in the record; about a third of the inactives were read at about 46 µM | Potency, µM (series often up to 37.8 µM), without a hit: at the top dose activity change, negative = inhibition, most hits filed as inhibitors | 1.8% of 300,000 active; active = well fitted inhibition curve with a large enough effect; inconclusive = small, poorly fitted or top-dose-only effect, or effect the other way; inactive = flat fitted curve, though single readings scatter; tested in HEK293 cells; about a fifth of its hits are not listed in these tables; also: % is scaled to controls: 0 for no effect and ±100 for the full control effect; luciferase read-out
SARS PLP yeast: blocks SARS-CoV papain-like protease in a yeast assay; S. cerevisiae expressing SARS-CoV PLpro, growth rescue; control for the full effect not named in the record; Potency, µM (titrated, usually from 32.9 µM), inactives show at the top dose activity, positive = growth rescue; 0.19% of 330,000 active; also: 0% is about no effect; nearly all actives have a fitted effect of over 55% in size; growth read by luminescence after 48 h
RE007 growth inh: less growth of the S. pombe RE007 Vpr strain. S. pombe RE007 Vpr strain, BacTiter-Glo ATP luminescence, 24 h; control for the full effect not named in the record. Potency, µM (series often up to 92.2 µM), for the others: at the highest dose activity change, negative = less growth. 0.21% of 360,000 active. AID 651644; active = well fitted falling curve with a large enough effect; inconclusive = small, poorly fitted or top-dose-only effect; inactive = no such curve, though single readings can be large or run the other way;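 also: % is scaled to controls: 0 for no effect and ±100 for the full control effect; nearly all actives have a fitted effect of over 50% in size; the assay follows cell death caused by Vpr and the record does not say whether a fall means rescue or toxicity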
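Fission yeast strain RE007, carrying one chromosomally integrated HIV-1 vpr copy, was seeded at OD 0.01 in PMG+AL medium with 23 nL pinned compound. After 24 h at 30 °C and 99% humidity, viability was read by BacTiter-Glo luminescence.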
Cruzain noTriton: inhibitors of Trypanosoma cruzi cruzain without detergent. AID 1476. Potency, µM, inactives show max response, negative = inhibition, usual class: inhibitors. purified cruzain, Z-FR-AMC fluorescence, no detergent. 2.3% of 200,000 active; active = well fitted curve in the direction sought with a large enough effect; inconclusive = small, poorly fitted or top-dose-only effect, or another doubt; inactive = no such curve, though single readings can be large; an effect the other way counts as inactive or inconclusive;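 also: plate controls were enzyme without inhibitor for no effect and buffer without enzyme for full effect; nearly all actives have a fitted effect of over 40% in size; top concentration of the series not given in the record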
Target sequence (P25779 123-467 limits assumed): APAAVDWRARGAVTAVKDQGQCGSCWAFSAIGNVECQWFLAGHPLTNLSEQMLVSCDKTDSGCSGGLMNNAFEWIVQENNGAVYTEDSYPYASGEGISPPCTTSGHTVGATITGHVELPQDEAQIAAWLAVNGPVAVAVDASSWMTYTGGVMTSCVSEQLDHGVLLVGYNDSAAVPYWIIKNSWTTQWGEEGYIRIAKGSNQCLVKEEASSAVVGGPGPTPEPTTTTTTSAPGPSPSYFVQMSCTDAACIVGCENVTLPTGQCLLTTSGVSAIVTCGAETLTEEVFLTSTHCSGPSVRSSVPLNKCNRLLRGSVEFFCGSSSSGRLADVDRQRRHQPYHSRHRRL
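Purified cruzain at 1.5 nM, pre-incubated 15 min with compound at room temperature in 100 mM sodium acetate pH 5.5, 5 mM DTT, 0.00005% Triton X-100. Reaction started with 2 uM Z-FR-AMC; AMC fluorescence increase over 60 s gives rate.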
NS1 function inh: inhibitors of influenza NS1 protein function. 0.4% of 270,000 active. Potency, µM (doses to about 46.1 µM), for inactives: at the top dose activity, positive = more growth. S. cerevisiae slowed by influenza A NS1, growth recovery by OD600; also: actives are rising curves; nearly all actives have a fitted effect of over 50% in size
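Read-out: OD600 growth recovery of NS1-expressing budding yeast. Cells grown overnight at 30C in -URA glucose medium, washed, resuspended and diluted 1:100 in 2% galactose assay medium, pH 6.0. Same strain lacking NS1 served as positive control.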
Cruzain Triton: cruzain (T. cruzi) inhibition with detergent | P25779 | purified cruzain, Z-FR-AMC fluorescence, 0.01% Triton | Potency, µM, for the others: max response, negative = inhibition, most hits filed as inhibitors | 0.43% of 200,000 active | AID 1478; active = well fitted curve in the direction sought with a large enough effect; inconclusive = small, poorly fitted or top-dose-only effect, or another doubt; inactive = no such curve, though single readings can be large; an effect the other way counts as inactive or inconclusive;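 also: plate controls were neutral wells for no effect and buffer without enzyme for full effect; nearly all actives have a fitted effect of over 40% in size; top concentration of the series not given in the record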
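Sodium acetate buffer (100 mM, pH 5.5) containing 5 mM DTT and 0.01% Triton X-100 hosted 1.5 nM cruzain and test compound for 15 min at room temperature. Cleavage of 2 uM Z-FR-AMC was then tracked by fluorescence.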
LASV entry inh: inhibitors of Lassa virus binding or cell entry. 1.2% of 300,000 active. Potency, µM (doses to about 37.9 µM), for inactives: top-dose activity change, negative = inhibition, usual class: inhibitors. Lassa virus pseudotype entry inhibition, cell reporter; control for the full effect not named in the record; active means well fitted inhibition curve with a large enough effect; inconclusive means small, poorly fitted or top-dose-only effect, or effect the other way; inactive means flat fitted curve, though single readings scatter; tested in HEK293 cells; also: % is scaled to controls: 0 for no effect and ±100 for the full control effect; nearly all actives have a fitted effect of over 50% in size; luciferase read-out
2A StopGo: lowers the luciferase signal of an FMDV 2A StopGo reporter | Potency, µM (top dose mostly 57.9 µM), for inactives: top-dose signal change, negative = less light | human cells with a luciferase reporter of 2A StopGo recoding; control for the full effect not named in the record | 1.2% of 410,000 active; active = well fitted falling curve with a large enough effect; inconclusive = small, poorly fitted or top-dose-only effect; inactive = no such curve, though single readings can be large or run the other way; tested in HEK293T cells; also: % is scaled to controls: 0 for no effect and ±100 for the full control effect; nearly all actives have a fitted effect of over 45% in size; luciferase light after 4 h
The depositor's hits bear a star; ? = inconclusive; / = no result given; & = joins results of further samples; [ ] = another dose, or the depositor's remark. Unless noted, calls follow the shape of the dose curve; as a rule, active means well fitted rising curve with a large enough effect; inconclusive means small, poorly fitted or top-dose-only effect; inactive means no such curve, though single readings can be large or run the other way. Potency is read from the fitted curve at half-maximal effect.

SMILES	MARV entry inh	SARS PLP yeast	RE007 growth inh	Cruzain noTriton	NS1 function inh	Cruzain Triton	LASV entry inh	2A StopGo
CC1CCc2c(sc3nc(C(C)(C)C)nc(N4CCN(C(=O)CCl)CC4)c23)C1 (stereo not given)	?	-8%	-14%	/	-89%	/	?	20µM*
Cn1cnnc1SC/C(O)=C(\C#N)c1nc2ccccc2[nH]1	17%	13%	9%	9%	1%	-7.8%	2%	-5%
Cc1ccc(C(=O)N2NC(c3ccc(F)cc3)C3C(=O)N(c4ccc(C)c(C)c4)C(=O)C32)cc1 (stereo not given)	11%	3%	8%	-6%	-7%	-1.8%	7%	?
COC(=O)C(Cc1csc2ccc(Cl)cc12)NC(=O)c1ccc(Cl)cc1 (stereo not given)	?	-4%	5%	/	-8%	/	4%[46.1 µM]	21%
O=C(Nc1cccc(C(F)(F)F)c1)C1CCCN(S(=O)(=O)c2cccc3nsnc23)C1 (stereo not given)	-27%[46.1 µM]	/	/	-20%	/	-10%	-3%[46.1 µM]	?
CC(C(=O)Nc1ccccc1-c1ccccc1)N1CCCCC1 (stereo not given)	?	-5%	-3%	13%	5%	9.4%	5%	?
CC[C@H](C)[C@H](NC(N)=O)C(=O)NCCc1ccc(Cl)cc1	-2%[46.1 µM]	-1%	5%	/	/	/	/	7%
c1ccc(CNc2nc(CN3CCOCC3)nc3scc(-c4ccccc4)c23)cc1	?	27%	10%	-18%	-15%	-3.0%	2%	-3%
COc1ccc(/C(O)=C2/C(=O)C(=O)N(CCN(C)C)C2c2ccc(F)cc2)cc1Cl (stereo not given)	5%	1%	14%	-5%	-8%	-5.4%	18%	28%
Cc1cc(-n2c(C)nc3ccccc3c2=O)ccc1NC(=O)c1ccc(C)c([N+](=O)[O-])c1	/	/	/	8%	/	-4.5%	-2%[46.1 µM]	0%
CCOC(=O)C1=C(CN2CCSCC2)NC(=O)NC1c1cc(C)ccc1C (stereo not given)	0%	1%	15%	-9%	3%	2.3%	15%	/
O=C(NCC(=O)N1CCOCC1)c1ccc(Br)cc1	/	5%	4%	/	4%	/	/	7%
CC(C)CN(CC(C)C)CC(O)CN(c1ccccc1)S(=O)(=O)c1ccccc1[N+](=O)[O-] (stereo not given)	?	0%	-8%	/	1%	/	?	-25%
COc1ccc(CC(=O)NCC2CCCN(Cc3ccc(F)cc3F)C2)cc1 (stereo not given)	/	3%	-15%	/	6%	/	/	2%
Cc1ccc(Cn2c(C(=O)Nc3ccc(Cl)cc3)cc3sccc32)cc1	-4%[46.1 µM]	/	/	9%	/	0.6%	16%[46.1 µM]	0%
CCCCN(C)CC(O)Cn1cc(/C=C/C(=O)c2ccc(OC)c(OC)c2)c2ccccc21 (stereo not given)	4.5µM*	/	/	-10%	/	-15%	?	-4%
CC(C)=CC(=O)Nc1nnc(-c2ccc(F)cc2)s1	-1%	-1%	-8%	13µM*	10%	3.9%	5%	/
COc1ccc(N=C(N)SCc2ccccn2)cc1	-23%	-7%	-9%	4%	15%	-3.5%	?	-7%
CNC(=O)c1ccsc1NC(=O)CCS(=O)(=O)c1ccc(C)cc1	19%[46.1 µM]	-1%	2%	/	/	/	-11%	-25%
CCNC(=O)CN(C1CCCCC1)S(=O)(=O)c1ccc(F)cc1	11%	-4%	-6%	-5%	5%	-3.5%	16%	-1%
Cc1ccc(S(=O)(=O)/N=C(/Nc2cccc3ccccc23)c2ccc(F)cc2)cc1	-9%[46.1 µM]	0%	11%	/	-2%	/	2%[46.1 µM]	60%[activator]
O=C(Nc1ccc(Cl)c([N+](=O)[O-])c1)c1cnccn1	-24%	-15%	-2%	-10%	-5%	-7.6%	2%	1%
COc1cc(OC)c(C(=O)NCCCn2ccnc2)cc1OC	3%[46.1 µM]	0%	-4%	/	/	/	-7%	-7%
CCc1ccc(S(=O)(=O)Nc2cc(SCC(=O)O)c(O)c3ccccc23)cc1	?	-6%	-17%	/	-10%	/	?	?
O=Cc1c(N2CCCCC2)nc2ccccn2c1=O	3%[46.1 µM]	-1%	5%	/	0%	/	17%[46.1 µM]	5%
COc1ccc(CNC(=O)CC(c2ccc(OC)cc2)N2Cc3ccccc3C2=O)cc1 (stereo not given)	/	/	/	-4%	/	0.2%	0%[46.1 µM]	13%
COC(=O)c1cc(N2C(=O)C3C(C2=O)C2(C)C=CC3(C)O2)ccc1Cl (stereo not given)	-2%	/	/	-19%	-84%	1.5%	/	/
C/C(=N\NC(=O)C1COc2ccccc2O1)c1cccs1 (stereo not given)	5%	-8%	-3%	3%	-7%	6.2%	12%	/
CCc1nnc(NS(=O)(=O)c2ccc(NC(=O)c3ccccc3OC)cc2)s1	/	6%	11%	/	7%	/	/	13%
CN(Cc1cc(=O)n2ccsc2n1)c1ccccc1	-10%	-19%	-11%	8%	2%	2.4%	1%	0%
N#C/C(=C\c1ccccc1O)C(=O)Nc1ccccn1	/	0%	2%	/	-6%	/	/	47%[activator]
CCn1nc(C(=O)NCCc2ccc(S(N)(=O)=O)cc2)c2ccccc2c1=O	15%	12%	17%	0%	11%	0.0%	-4%	4%
COCCNC(=O)CSc1nc2scc(-c3ccccc3)c2c(=O)[nH]1	/	-2%	36%	/	6%	/	/	-28%
CCc1nnc(SCC(=O)Nc2ccc(F)cc2F)c2cc3sc(C)cc3n12	/	/	/	1%	/	1.6%	-1%[46.1 µM]	-20%
COc1ccc(NCc2cc3cc4c(cc3n(CC(=O)Nc3cccc(F)c3)c2=O)OCO4)cc1	/	/	/	?	/	1.5%	9%[46.1 µM]	-11%
CC(C)C(=O)NCCn1ccc2ccccc21	?	-10%	?	4%	-1%	-0.6%	-5%	-15%
C=CCn1c(N)c(C(=O)OCCC)c2nc3ccccc3nc21	13%	-8%	3%	-2%	-13%	-4.0%	-11%	0%
CSc1nccn1C(=O)c1ccccc1[N+](=O)[O-]	/	-5%	-3%	/	15%	/	/	-15%
CC1(C)C(=O)OC(C(=O)c2ccccc2)C(C)(C)C1=O (stereo not given)	4%	5%	3%	1%	10%	2.2%	11%	-17%
COc1cc2cc(C)c(SCC(=O)N3CCN(C(=O)c4ccco4)CC3)nc2cc1OC	/	-1%	3%	/	1%	/	/	?
CCN1C(=O)CS/C1=N\S(=O)(=O)c1ccc(C)cc1	24%[46.1 µM]	0%	32%	/	/	/	-8%	-8%
C/C(=N\NC(=O)C1CC1(c1ccccc1)c1ccccc1)c1cccc([N+](=O)[O-])c1 (stereo not given)	2%	1%	5%	?	10%	-2.3%	3%	-16%
COCCNC(=O)CSc1nnc2c(Cl)cc(Cl)cn12	16%[46.1 µM]	2%	-12%	-10%	2%	3.6%	-4%	6%
Cc1cc(/C=C2\NC(=O)NC2=O)c(C)n1-c1ccc(N2CCOCC2)cc1	-13%[46.1 µM]	-1%	-27%	/	?	/	?	-9%
O=C(C1CCN(S(=O)(=O)N2CCOCC2)CC1)N1CCN(c2ccccc2)CC1	?	-6%	18%	-7%	-2%	7.5%	2%	-29%
O=C(COC(=O)c1ccc2c(c1)OCO2)NCc1ccc2c(c1)OCO2	18%	0%	4%	-2%	3%	1.1%	-2%	0%
Cc1ccc2c(c1)N(CCC(=O)NC1CCCCC1)C(=O)CO2	13%[46.1 µM]	2%	13%	/	14%	/	3%	23%
CC(/C=C/c1ccccc1)=N\NC(=O)CNC(=O)c1ccccc1Cl	3%	3%	18%	12%	1%	-5.5%	0%	0%
CCOC(=O)c1cccc(COC(=O)c2cccc(-c3nnc(-c4ccccc4)o3)c2)c1	?	15%	-23%	-6%	2%	-8.8%	?	?
COc1ccc(OC)c(C2=NS(=O)(=O)N(C)C(C(=O)Nc3ccc(C(C)=O)cc3)=C2)c1	20%&20%[46.1 µM]	9%	1%	?	15%	-6.1%	2%[46.1 µM]	-1%&-23%
COC(=O)c1ccc(CSc2nnc(CNC(=O)c3cccs3)o2)o1	-1%	-2%	5%	1%	3%	7.5%	-10%	-7%
CC(=O)c1ccc(NC(=S)N2CCC(O)CC2)cc1	-9%	11%	6%	-6%	-1%	-0.4%	1%	3%
Cc1ccc(C(=O)NNC(=O)C2CCN(S(=O)(=O)c3ccc(Cl)cc3)CC2)cc1	4%	-1%	12%	-12%	5%	-1.4%	8%	-17%
Cc1ccc(C)c(NNC(=O)C(=O)NNc2cc(C)ccc2C)c1	-2%	0%	16%	/	0%	/	19%	-12%
Oc1cccc(/C=N\Nc2nncc(-c3ccccc3)n2)c1	11%[46.1 µM]	0%	6%	/	5%	/	-20%	16%
COc1ccc(C2=NS(=O)(=O)N(C)C(C(=O)N3CCCCC3)=C2)cc1	/	4%	-3%	/	-4%	/	/	-10%

Entries of single compounds, looked up by structure. Order of screens: MARV entry inh, SARS PLP yeast, RE007 growth inh, Cruzain noTriton, NS1 function inh, Cruzain Triton, LASV entry inh, 2A StopGo
Profile of CCc1nnc(NS(=O)(=O)c2ccc(NC(=O)c3ccccc3OC)cc2)s1 : /, 6%, 11%, /, 7%, /, /, 13%
Profile of COc1ccc(NCc2cc3cc4c(cc3n(CC(=O)Nc3cccc(F)c3)c2=O)OCO4)cc1 : /, /, /, ?, /, 1.5%, 9%[46.1 µM], -11%
Profile of Cc1cc(/C=C2\NC(=O)NC2=O)c(C)n1-c1ccc(N2CCOCC2)cc1 : -13%[46.1 µM], -1%, -27%, /, ?, /, ?, -9%
Profile of C/C(=N\NC(=O)C1COc2ccccc2O1)c1cccs1 (stereo not given) : 5%, -8%, -3%, 3%, -7%, 6.2%, 12%, /
Profile of O=C(Nc1cccc(C(F)(F)F)c1)C1CCCN(S(=O)(=O)c2cccc3nsnc23)C1 (stereo not given) : -27%[46.1 µM], /, /, -20%, /, -10%, -3%[46.1 µM], ?
